# Assay outcomes as filed in PubChem.
# Beta2AR agonist – activates human beta-2 adrenergic receptor causing internalization. AID 504454. Am2.2-beta2AR cells, FAP receptor internalization, flow cytometry; reference of the scale not given here. 340,000 compounds, 0.43% hits. P07550. response, % (test concentration not listed);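 active = response above a set limit, near 3 SD of response in nonfluorescent compounds, cut at about 42% in these data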;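 also: stock transfer was 100 nL into about 11 µL; a reference agonist was the positive control; negative values mostly stem from fluorescent compounds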
# Target sequence (P07550 whole entry, looked up): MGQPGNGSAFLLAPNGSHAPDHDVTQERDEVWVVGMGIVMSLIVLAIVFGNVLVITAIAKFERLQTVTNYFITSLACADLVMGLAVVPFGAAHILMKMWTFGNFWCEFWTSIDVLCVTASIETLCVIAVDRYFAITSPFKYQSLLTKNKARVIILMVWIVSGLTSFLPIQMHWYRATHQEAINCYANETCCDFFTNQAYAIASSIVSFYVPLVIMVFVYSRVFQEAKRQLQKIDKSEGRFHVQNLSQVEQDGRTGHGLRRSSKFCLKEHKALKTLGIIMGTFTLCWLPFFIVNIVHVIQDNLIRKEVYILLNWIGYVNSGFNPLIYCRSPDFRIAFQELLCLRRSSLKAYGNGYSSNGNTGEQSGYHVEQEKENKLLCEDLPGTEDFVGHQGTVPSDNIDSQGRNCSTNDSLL
# ALR H2O2 inh – blocks human ALR sulfhydryl oxidase activity; P55789; purified ALR, DTT oxidation, H2O2 HRP-luminol luminescence; inhibition, % (test concentration not listed); 290,000 compounds, 3.8% hits; AID 485317;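 active = mean and each replicate at 75% or more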;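 also: stock transfer was 7.5 nL into about 7.5 µL; 0% = neutral wells and 100% = wells with inactivated enzyme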
# Target sequence (P55789 whole entry, looked up): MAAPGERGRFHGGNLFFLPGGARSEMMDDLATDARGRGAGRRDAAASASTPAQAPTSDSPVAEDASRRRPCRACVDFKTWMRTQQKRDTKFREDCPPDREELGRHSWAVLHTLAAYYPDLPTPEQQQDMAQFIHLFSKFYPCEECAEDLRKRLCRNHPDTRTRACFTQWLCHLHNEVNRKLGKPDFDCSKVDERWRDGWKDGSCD
# UCH37 inh – blocks the human deubiquitinase UCH37; Q9Y5K5; purified proteasome/UCH37, Ub-AMC cleavage fluorescence; inhibition, % (test concentration not listed); 330,000 compounds, 0.33% hits; AID 588478;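 active = mean of two replicates above 20%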;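 also: 0% = compound-free wells with enzyme and 100% = wells lacking proteasome; stock transfer was 100 nL into about 20 µL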
#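 Material: human UCH37 enzyme supplied as purified proteasome complex. Measure: % inhibition of Ub-AMC cleavage fluorescence. Medium: pH 7.4 Tris-HCl (50 mM) with ovalbumin, ATP-MgCl2, DTT. Times: 30 min preincubation with enzyme, 25 min cleavage at room temperature. Detection: AMC fluorescence intensity at 355/460 nm.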
# FGF22 binding – binders of recombinant human FGF22 by thermal shift; Q9HCT0; SYPRO orange fluorescence; percent of sucrose octasulfate shift, DMSO zero; calls only at 9.99 µM; 340,000 compounds, 1.5% hits;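 active = melting point raised past a set limit in the mean and every replicate; three in four hits are not shown here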
# Target sequence (Q9HCT0 whole entry, looked up): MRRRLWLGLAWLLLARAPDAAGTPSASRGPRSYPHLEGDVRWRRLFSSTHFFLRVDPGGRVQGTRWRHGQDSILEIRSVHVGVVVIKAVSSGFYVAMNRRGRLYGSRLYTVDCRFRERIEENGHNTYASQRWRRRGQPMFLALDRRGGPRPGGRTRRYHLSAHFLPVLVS
# HNF4A DNA FP – change in binding of human HNF4 alpha to DNA. 360,000 compounds, 0.3% hits. HNF4a-FITC DNA binding, fluorescence polarization, 1 h. activity change, % at 10 µM. AID 1224865. P41235; in the data active = activity change above about 30%, passing the limit was not always enough;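 also: controls were the assay level and a saturating level of protein; the project sought stronger binding though the title names inhibitors; some compounds called inactive have numbers as strong as hits; positive values seem to mean higher polarization but the record does not say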
# Ecoli rRNA inh – selective bacterial rRNA inhibition in E. coli; E. coli WT GFP vs humanized-ribosome RFP mutants, fluorescence, 24 h; hits give low values; DMSO median 0, no signal -100; GFP signal change (wild-type ribosome), % (concentration not given with the values); 350,000 compounds, 1.6% hits;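 active = significant combined selectivity score with lowered wild-type GFP, culture density cut under 30%, mutant RFP and density less affected; inactive = any of these conditions unmet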; also: one replicate is shown; some compounds called inactive have numbers as strong as hits
# E coli growth – blocks Escherichia coli growth. OD600, 23 h; hits give low values. OD600 absorbance (concentration not given with the values). 330,000 compounds, 0.21% hits. AID 1053175;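 active = OD600 absorbance below the run mean of sample wells minus 3.6 SD, in any replicate, cut at about 0.56 in these data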;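 also: stock transfer was 300 nL into about 60 µL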
# Ecoli rRNA inh OD600 – second read-out of Ecoli rRNA inh, no call of its own (marks repeat the call); OD600 change, %; measured here: OD600 growth;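 optical density of the mix in the first replicate; 0 = DMSO median and -100 = no signal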
# Ecoli rRNA inh RFP – second read-out of Ecoli rRNA inh, no call of its own (marks repeat the call); RFP signal change, %; measured here: RFP humanized mutant strains;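 first replicate; 0 = DMSO median and -100 = no signal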
# An asterisk follows results filed as active; i = inactive; . = not tested or not shown; + = active, no number; & = joins results of further samples. This is a subset (hit frequency here may not be typical).
SMILES,Beta2AR agonist,ALR H2O2 inh,UCH37 inh,FGF22 binding,HNF4A DNA FP,Ecoli rRNA inh,Ecoli rRNA inh OD600,Ecoli rRNA inh RFP,E coli growth
O=C(C1CCCCC1)N1CCN(C(=O)C2CCCCC2)CC1,4,-4,2.1,i,2.7,-4,1,-10,0.65
Fc1cc(F)cc(NC(=S)N2CCN(c3ncccn3)CC2)c1,7,-3,1.6,i,1.9,-14,-12,-3.2,0.66
CCc1cc(C(=O)OC)c(NC(=O)CC2Sc3ccc(C(F)(F)F)cc3NC2=O)s1 (configuration not stated),3,.,6.8,i,-2.7,0,5,-2.5,0.69
CC(=O)c1ccc(NC(=S)N2CCCC(C(F)(F)F)C2)cc1 (configuration not stated),-5,1,-0.6,i,-2.1,4,7,1.5,0.73
O=C(Nc1c(-c2ccccc2)[nH][nH]c1=O)c1cnccn1,.,.,.,i,-2.8,31,21,2.1,.
C=CCNC(=O)CN1N=C(c2ccc(C)cc2)CCC1=O,-2,-6,5.1,i,4.9,5,23,1.6,0.65
O=C(/C=C/c1ccco1)Nc1sc2c(c1C(=O)O)CCC2,-4,98*,14,i,-9.1,-24*,-17*,-4.8*,0.71
Cc1[nH]n(-c2ccc([N+](=O)[O-])cc2)c(=O)c1/C=N/N1CCOCC1,-4,3,.,i,-0.3,7,8,-1.5,.
Cc1onc(-c2ccccc2Cl)c1C(=O)Nc1nnc(-c2ccc(Cl)cc2Cl)s1,1,12,-25,i,0.8,0,-9,-4.5,0.77
Nc1cc(N)nc(SCC(=O)Nc2ccc3c(c2)OCO3)n1,7,.,0.9,i,4.8,-5,-4,-3.4,0.65
CCC(=O)NC(Nc1sc2c(c1C(=O)OC)CCCC2)(C(F)(F)F)C(F)(F)F,2,-4,5.4,.,2.2,.,.,.,0.73
CCCCN(C(=O)c1ccc(-c2ccc(Cl)cc2)o1)c1c(N)n(CC(C)C)c(=O)[nH]c1=O,6,-1,-41,i,3.8,10,17,1.6,0.71
CC1Oc2ccccc2C=C1/C=N/NC(=O)[C@@H](C)NC(=O)OC(C)(C)C (some centres not stated),-5,-4,.,i,-5.1,0,5,-0.1,.
CC(C)C(NC(=O)CNC(=O)OC(C)(C)C)C(=O)NCc1ccccc1 (configuration not stated),0,.,2.2,.,-2.4,.,.,.,0.75
COc1ccc(CC(=O)N2CCN(C(=O)Cc3ccc(OC)cc3)CC2)cc1,-1,0,3.0,.,-2.9,.,.,.,0.75
CCN(C(=O)COC(=O)c1cc(S(=O)(=O)N(C)C)ccc1Cl)C1CCS(=O)(=O)C1 (configuration not stated),-1,-3,2.7,i,0.0,1,-2,-1.2,0.66
CN(C)CCCNC(=O)c1ccc(-c2cc(O)c3ncccc3c2)cc1,4,-7,0.5,i,1.6,-40,-73,-17,0.61
CCOC(=O)c1ccc[n+](CC(=O)c2ccc(NC(=O)c3ccccc3)cc2)c1,-3,9,5.7,i,0.8,10,16,2.8,0.71
COc1ccc(CCNC(=O)COC(=O)c2cc3ccccc3oc2=O)cc1OC,14,6,-0.8,i,3.2,4,11,1.6,0.65
Cc1ccc(NC(=O)CN2C(=O)N/C(=C/c3cc(C)n(-c4ccc(C(=O)O)cc4)c3C)C2=O)cc1,-2,.,10,i,-6.3,14,9,5.8,0.73
COc1ccc(CN2CCN(CCCc3ccccc3)CC2)c(OC)c1,.,-16,2.4,i,.,1,1,-6.9,0.68
CCCCN(C(=O)C1CCCC1)C1CCS(=O)(=O)C1 (configuration not stated),0,.,3.8,i,1.9,6,9,-0.6,0.65
CSc1nsc(SCC(=O)Nc2c(C)n(C)n(-c3ccccc3)c2=O)n1,-4,-4,1.6,.,-2.0,.,.,.,0.67
COCCCNC(=S)N(Cc1cccnc1)Cc1ccc(OC)c(OC)c1,1,-5,2.0,.,0.3,.,.,.,0.68
Cc1cc(/C=C2\SC(=O)N(C)C2=O)c(C)n1-c1ccc(O)cc1,-12,15,2.6,i,2.5,-32,-53,2.3,0.64
O=C(NC1(Cc2ccc(O)cc2)CCCCC1)c1ccccc1,43*,.,2.1,i,2.3,-25,-23,-3.4,0.66
COc1ccc(-c2cc(C)no2)cc1S(=O)(=O)NCc1cccc(C)c1,-4,1,2.0,i,-8.4,-7,-5,3.4,0.68
Cc1cc(C)c(S(=O)(=O)Nc2ccc(O)cc2)cc1C,0,99*,2.4,.,-0.1,.,.,.,0.66
O=C1OC2(CCCCC2)OC(=O)C1=CNc1nccs1,8,4,2.3,.,-2.9,.,.,.,0.69
CC(=O)Nc1cccc(OCC(=O)NS(=O)(=O)c2ccc(Cl)cc2)c1,-2,3,0.4,.,-1.2,.,.,.,0.77
O=S(=O)(Nc1ccccc1Cl)c1cccc2nsnc12,4,3,3.5,i,-4.5,-6,0,-1.1,0.67
O=C(O)c1ccc(N/N=C/C2=Cc3ccccc3OC2)cc1,1,98*,.,i,-1.4,-15,0,2.9,.
C[C@@H]1CN([C@H](C)CO)S(=O)(=O)c2ccc(C#Cc3ccccc3)cc2O[C@H]1CN(C)C(=O)Nc1ccc2c(c1)OCO2,.,.,.,i,2.9,-1&0,-5&5,-1.9&-2.4,.
Cc1cc(=O)oc2c3c(cc(OCC(=O)N[C@@H](Cc4ccccc4)C(=O)O)c12)OC(C)(C)CC3,-6,0,-463,i,-4.5,-31*,-17*,-12*,0.72
COc1ccc(C(=O)NCC2(c3ccccc3)CCOCC2)cc1[N+](=O)[O-],0,-5,2.4,.,-2.5,.,.,.,0.6
CC1(C(=O)Nc2nnc(SCc3ccccc3)s2)Cc2ccccc2C(=O)O1 (configuration not stated),1,3,4.5,.,3.4,.,.,.,0.62
COc1ccccc1OCC(=O)N/N=C/c1cccc2cccnc12,3,0,.,i,7.4,-10,2,5.4,.
CC1C(=O)N(Cc2cn(Cc3ccco3)nn2)CCS(=O)(=O)N1Cc1ccc(-c2ccc(Cl)c(Cl)c2)cc1 (configuration not stated),.,.,.,.,2.5,1,-1,-0.1,.
CC1CCN(CC(=O)N2c3ccccc3CCc3ccccc32)CC1,27,84*,0.1,.,0.2,.,.,.,0.65
O=C(Nc1nnc(-c2ccccc2F)s1)Nc1ccccc1F,4,-8,3.2,.,0.0,.,.,.,0.7
Cc1ccc2c(c1)N(CC(=O)NC1CCCC1)C(=O)CO2,-5,-3,1.6,i,-0.4,3,-2,-0.2,0.66
Cc1ccc(N=C(NOCc2ccc(Cl)cc2Cl)c2nonc2N)c(C)c1,1,-1,1.3,i,-3.4,-3,-2,-1.4,0.7
CC(C)C(OC(=O)c1cccc(S(=O)(=O)NCC(F)(F)F)c1)C(=O)NC(N)=O (configuration not stated),-1,-2,4.7,i,3.0,0,5,1.1,0.69
Cn1c2ccccc2c2cnn(CC(=O)Nc3ccccc3Br)c(=O)c21,10,.,-14,i,1.2,6,2,-4.3,0.69
CSc1cccc(NC(=O)CSc2ccccc2)c1,-13,-5,4.3,.,3.2,.,.,.,0.7
O=C(C[C@H]1CC[C@H]2[C@@H](COC[C@H](O)CN2C(=O)c2ccccn2)O1)N1CCN(c2ccccc2)CC1,.,.,.,i,0.0,3,3,-1.4,.
COc1cc(/C=N/NC(=O)CCn2c3ccccc3c3ccccc32)cc(OC)c1OC,3,-5,.,i,11,5,5,-0.7,.
Cc1cccc(-n2ccc(=O)c(C(=O)Nc3ccc(S(=O)(=O)N4CCOCC4)cc3)n2)c1,3,1,3.8,i,0.8,12,16,3.0,0.68
CCCCNC(=O)CN(CCc1ccccc1)S(C)(=O)=O,8,-2,2.8,.,0.5,.,.,.,0.73
CCOC(=O)C1/C(=N\O)CC(C)(O)C(C(=O)OCC)C1c1ccc(N(C)C)cc1 (configuration not stated),-4,34,.,.,-1.9,.,.,.,.
COc1ccc(CN=C(Nc2ccccc2)SC2CC(=O)NC2=O)cc1 (configuration not stated),-4,-1,1.0,i,-2.1,7,7,5.9,0.67
CC(=O)Nc1sc2c(c1C(N)=O)CCN(Cc1ccccc1)C2,10,-2,-3.3,i,1.1,4,-5,0.5,0.65
Cc1cc(=O)[nH]c(N/N=C/c2ccc(O)c(O)c2)n1,-3,99*,.,i,-3.0,5,13,-0.4,.
Cc1cc(C(=O)Nc2cccc3ccccc23)n(-c2ccccc2)n1,1,-35,2.0,+,2.3,-4,-2,1.8,0.69
